Screens (PubChem)
VACV Venus inh – qHTS for Stage-Specific Inhibitors of Vaccinia Orthopoxvirus: Venus Reporter Primary qHTS; AID 720580, 2013; Potency, µM (series often up to 36.5 µM), for the others: at the top dose activity change, negative = inhibition, usual class: inhibitors; 0.46% of 330,000 active; Vaccinia virus Venus reporter expression, fluorescence; active means well fitted inhibition curve with a large enough effect; inconclusive means small, poorly fitted or top-dose-only effect; inactive means no such curve, though single readings can be large or run the other way; tested in A549 cells; further: nearly all actives have a fitted effect of over 30% in size; inactives centre near -10
VACV mCherry inh – qHTS for Stage-Specific Inhibitors of Vaccinia Orthopoxvirus: mCherry Reporter Primary qHTS; 0.63% of 310,000 active; Vaccinia virus mCherry reporter infection, fluorescence; about a quarter of the inactives have no number; Potency, µM (top dose mostly 36.5 µM), inactives show at the highest dose activity change, negative = inhibition, actives largely listed as inhibitors; active = well fitted inhibition curve with a large enough effect; inconclusive = small, poorly fitted or top-dose-only effect; inactive = no such curve, though single readings can be large or run the other way; tested in A549 cells; further: nearly all actives have a fitted effect of over 35% in size; inactives centre near -10
* marks the source's active call; other numbers are inactive results; i = inactive; ? = inconclusive; nt = no result given; [ ] = remark or other dose. On the % scale 0 is the no-effect control and ±100 the full control effect; potency means the concentration at half of the fitted maximal effect.

molecule,VACV Venus inh,VACV mCherry inh
CCN(CC)C(=O)Cn1cc(C=C2C(=O)N(C)C(=O)N(C)C2=O)c2ccccc21,0.8%,-6.6%
CC(C)(C)c1ccc(C(=O)N2CCC2(C)C(=O)NS(=O)(=O)c2ccc(C#N)cc2)cc1 (centres undefined),-25.9%,i
CCCNC(=O)C(=O)c1cccn1-c1ccsc1C(=O)OC,-10.4%,i
O=C(CN1CCC(NC(=O)C2CCCCC2)CC1)Nc1cccc(F)c1,1.1%,-7.4%
COC(=O)c1cc(Br)c(=O)n(-c2ccc(OC)cc2)c1,-10.0%,nt
O=C(NCc1ccc(Cl)cc1Cl)C1CCN(S(=O)(=O)c2ccc3c(c2)OCCCO3)CC1,-27.4%,-10.2%
Cc1ccc(S(=O)(=O)N2[C@@H](c3cccc4ccccc34)C(C(=O)O)=C[C@H]2C(C)(C)C)cc1,0.2%,-1.6%
CCOC(=O)CN1C(=O)SC(CC(=O)Nc2nccs2)C1=O (centres undefined),7.3%,nt
Cc1nn(-c2cc(Cl)ccc2N)c(=O)c2ccccc12,-10.0%,-2.9%
CCn1c(SCCN2CCCCC2)nnc1-c1ccc(S(=O)(=O)N2CCOCC2)cc1,-7.8%,i
COc1ccc(CCN2CN(S(=O)(=O)c3ccccc3)c3nc4ccccc4nc32)cc1,-6.2%,-16.2%
COc1ccc(CN(C)C(=O)C(Cc2ccccc2)NC(=O)c2ccccc2)c(OC)c1 (centres undefined),-12.6%,i
COc1ccc(NC(=O)/C=C/c2ccco2)cn1,-15.7%,-11.3%
COc1ccc(CSc2ccc(S(=O)(=O)N3CCCC3)cn2)cc1F,-12.0%,-5.3%
O=C(Cn1cnc2onc(-c3ccc(F)cc3)c2c1=O)Nc1ccc(F)c(Cl)c1,-11.8%,-11.6%

The list continues:
molecule,VACV Venus inh,VACV mCherry inh
O=C(NNC(=O)C1CC(c2cccs2)=NO1)Nc1ccccc1 (centres undefined),-5.7%,-1.8%
Cc1cc(C)c2nc(NNC(=O)c3ccc(S(=O)(=O)N4CC(C)CC(C)C4)cc3)sc2c1 (centres undefined),?,?
CC1(C(=O)NS(=O)(=O)Cc2cccc(Cl)c2)CCN1C(=O)Cc1ccccc1 (centres undefined),1.6%,-1.8%
CC(=O)c1cc(CN2CCC(n3nccc3NC(=O)c3ccccc3Cl)CC2)cs1,-8.7%,i
OC(c1cccc(Cl)c1)c1nc(-c2ccoc2)cs1 (centres undefined),17.7%,8.7%
C=CCn1c(COc2ccccc2)nnc1SCC(=O)N/N=C/c1ccc(C)cc1,-29.5%,?
CN(C)c1nc(Oc2ccc(C(=O)OCC(=O)Nc3ccccc3)cc2)nc(N(C)C)n1,-21.5%,nt
COc1ccc([N+](=O)[O-])cc1NC(=O)Cn1ccsc1=N,-16.4%,?
CC(/C=N/N1CCN(c2ccc(C)cc2)CC1)=C\c1ccccc1,-0.1%,-6.3%
COc1ccc(-c2cc(=O)n(CCC#N)[nH]2)cc1,-23.0%,i
Cc1ccc(/C=C/C(=O)Nc2cc(S(N)(=O)=O)ccc2O)cc1,6.7%,-0.8%
O=C(O)c1ccc2c(c1)C(=O)N(c1cccc3ccccc13)C2=O,-13.9%,-10.4%
Cc1cc(CNC(=O)Cc2ccc(F)cc2)c2ccccc2n1,-4.3%,1.7%
O=C(CNCc1ccc(Cl)cc1)Nc1ccc(C(=O)N2CCCCCC2)cc1,-11.7%,28.6%
O=C(COc1ccccc1C(=O)Nc1ccccc1)Nc1ccccc1Br,-8.8%,-5.0%

Five of these compounds, reformatted.
The line under a structure holds: VACV Venus inh | VACV mCherry inh
> C=CCn1c(COc2ccccc2)nnc1SCC(=O)N/N=C/c1ccc(C)cc1
    -29.5% | ?
> CN(C)c1nc(Oc2ccc(C(=O)OCC(=O)Nc3ccccc3)cc2)nc(N(C)C)n1
    -21.5% | nt
> COc1ccc([N+](=O)[O-])cc1NC(=O)Cn1ccsc1=N
    -16.4% | ?
> CC(/C=N/N1CCN(c2ccc(C)cc2)CC1)=C\c1ccccc1
    -0.1% | -6.3%
> COc1ccc(-c2cc(=O)n(CCC#N)[nH]2)cc1
    -23.0% | i

Continued.
molecule,VACV Venus inh,VACV mCherry inh
CCCS(=O)(=O)c1nc(S(=O)(=O)c2ccc(C)cc2)c(N2CCCC2)s1,-19.6%,nt
O=C(Nc1cc(C(F)(F)F)ccc1N1CCCC1)C1CC(=O)N(Cc2ccccc2)C1 (centres undefined),-14.1%,-1.4%
Cc1cc(Cl)c(S(=O)(=O)Nc2ccon2)cc1OCC(=O)NC1CCCCC1,0.3%,-12.2%
O=C(CSc1nncn2c1cc1sccc12)Nc1ccc(Br)cc1F,-6.0%,-11.2%
COc1ccc(CNC(=O)CCc2c(C)nn(-c3ccc(N4CCCC4)nn3)c2C)c(OC)c1,-8.0%,3.5%
CCOC(=O)c1c(C)n(OCc2ccccc2)c2ccc3nonc3c12,-12.3%,-10.4%
COc1ccc(OC)c(NC(=S)NCCN2CCOCC2)c1,3.9%,i
C[C@H](CO)N1C[C@H](C)[C@@H](CN(C)S(=O)(=O)c2ccccc2)Oc2c(cccc2N(C)C)C1=O,-15.9%,i
COc1ccc(N2CCN(CCCNC(=O)C3CCCN(S(=O)(=O)c4cnc[nH]4)C3)CC2)cc1 (centres undefined),-5.9%,17.5%
CCCc1cc(=O)n2[nH]c(C(F)(F)F)nc2n1,4.1%,7.0%
Cc1cc(NC(=O)COC(=O)C2CC(=O)N(c3ccc(Br)cc3)C2)no1 (centres undefined),-4.8%,i
O=C(Nc1ccc2c(c1)C(=O)OC2)c1ccc(F)cc1F,-12.6%,-19.6%
CCCCn1nnnc1C(c1ccccc1)N1CCN(C(C)=O)CC1 (centres undefined),-3.2%,4.5%
COC(=O)COc1ccc(Cl)cc1Cl,-12.4%,-13.6%
Cc1cc(=O)oc2cc(OCC(=O)N3CCCc4ccccc43)ccc12,-4.2%,nt

Other results
molecule,VACV Venus inh,VACV mCherry inh
CC(Cc1n[nH]c(=S)n1N)c1ccccc1 (centres undefined),-5.4%,-11.4%
CSC(=NS(=O)(=O)c1ccccc1)SC,-29.1%,nt
CC1(C(=O)NCc2cc(F)cc(C(F)(F)F)c2)C=CC2(CCCCC2)N1C(=O)c1ccccc1 (centres undefined),-24.3%,-14.7%
Cc1cc(C)c(S(=O)(=O)N2CCOC2CNC(=O)C(=O)NCc2ccccn2)c(C)c1 (centres undefined),-15.8%,i
Cn1c(=O)c2c(-c3ccccc3)n(-n3cnnc3)cc2n(C)c1=O,-23.4%,nt
COc1ccc(NC(=O)c2cc(S(=O)(=O)N3CCOCC3)cs2)cc1,-10.2%,-9.6%
CCOc1ccc(CN2CCC(n3nccc3NC(=O)C3CC3)CC2)cc1CO,-1.4%,-13.3%
CCC(C)(C(=O)NC1CCCCC1)N(Cc1cccs1)C(=O)c1ccc(=O)[nH]c1 (centres undefined),-6.4%,-15.0%
CCOc1ccc(CCNC(=O)C2CC(=O)N(C3CCCC3)C2)cc1OCC (centres undefined),0.0%,i
OCCOCC#CCN1CCOCC1,0.5%,nt
CCOc1ccc(C(=O)c2nc3c(n2O)CCCC3)cc1,-15.5%,-6.7%
CN1CCN(/C=N/c2sc3c(c2C#N)CCCCC3)CC1,-11.5%,nt
Cc1ccnc(NC(=O)CCC(=O)N(CC(=O)NCc2ccccc2)Cc2ccco2)c1,-12.3%,-6.3%
COCc1ccc(CN2CCc3c([nH]c4ccccc34)C2CC(C)C)o1 (centres undefined),-3.8%,?
O=C(COc1cccc2ccccc12)NNC(=O)[C@@H]1CCCC[C@@H]1C(=O)O,-5.8%,-11.0%

Other results:
molecule,VACV Venus inh,VACV mCherry inh
CCOC(=O)c1ccccc1NC(=O)c1cnc(N2CCOCC2)c2ccccc12,-10.7%,-16.9%
COc1ccc(-n2nnnc2SCC(=O)c2cccc(OC)c2)cc1,-5.3%,-18.9%
O=C(CCCn1c(=O)c2cccn2c2cccnc21)NCCc1ccc(Cl)cc1,-8.4%,-11.6%
Cc1ccccc1NC(=O)c1ccccc1OCC(=O)Nc1ccc(Br)cc1,-23.9%,-12.3%
N#C/C(=C\c1ccco1)C(=O)Nn1cnnc1,-8.7%,-5.3%
COc1ccc(NC(=O)C(=O)NCC(c2cccnc2)N2CCc3ccccc32)cc1OC (centres undefined),-14.0%,-25.6%
N[C@H](CS)C(=O)O,-5.4%,-14.2%
CN(C)C(=O)c1nc2ccc(Cl)cn2c1CN1CCCC(OCc2cccnc2)C1 (centres undefined),-2.3%,-18.1%
CCOC(=O)Cn1c(S(=O)(=O)Cc2ccccc2)nc2ccccc21,-15.9%,i
CCc1cccc(OCC(=O)Nc2c[nH]c(=O)[nH]c2=O)c1,-1.0%,-5.6%
O=C(Nc1cccc2ccccc12)c1[nH]c(-c2ccccc2)c2c1C(=O)N(C1CC1)C2=O,?,-11.3%
C=CCn1c(=O)c(C#N)cc2c(=O)n3ccccc3nc21,-25.4%,-9.5%[1.46 µM]
O=C(COC(=O)c1ccc2ccccc2c1)Nc1ncc(C(F)(F)F)cc1Cl,-5.9%,i
Cc1ccc(NC(=O)COC(=O)c2ccco2)cc1C,-1.4%,-8.2%
Cc1ccc(-c2cc(C(=O)N3CCN(c4ncccn4)CC3)c3cc(Br)ccc3n2)o1,1.3%,-9.1%

Entries of single compounds from above. Screens in order: VACV Venus inh	VACV mCherry inh
Results for O=C(CCCn1c(=O)c2cccn2c2cccnc21)NCCc1ccc(Cl)cc1 : -8.4%	-11.6%
Results for COc1ccc(-n2nnnc2SCC(=O)c2cccc(OC)c2)cc1 : -5.3%	-18.9%

(further entries)
molecule,VACV Venus inh,VACV mCherry inh
O=C(N/N=C/c1cc(Br)cc(Br)c1O)c1cccc(N2CCCC2=O)c1,-13.2%,-9.2%
CSc1ccc(CCNC(=O)c2cc3c(-c4ccccc4F)nn(C)c3s2)cc1,-2.5%,-6.1%
O=C(NCc1ccco1)c1cc(=O)c2ccccc2o1,-15.5%,-1.3%
O=C(Cn1ccc([N+](=O)[O-])n1)NCc1cccnc1,-3.1%,-12.5%
O=C(Nc1ccc(F)cc1)N(CCCN1CCOCC1)Cc1cc2cc3c(cc2[nH]c1=O)OCCO3,?,nt
O=C(OCCc1cc2ccccc2c(=O)o1)N1CCOCC1,-2.3%,5.4%
Cc1cccc(-n2c(CN3C(=O)c4ccccc4C3=O)nc3ccccc3c2=O)n1,-5.2%,-10.3%
CCOC(=O)N1CCN(C(=O)CS(=O)(=O)Cc2nc(-c3ccccc3C)oc2C)CC1,-21.1%,?
CCOc1ccccc1NC(=O)N1CC(CC)Oc2ccccc21 (centres undefined),-7.9%,2.2%
CNC(=O)c1c(NC(=O)/C=C/c2ccccc2Cl)sc2c1CCC2,?,-32.7%
Nc1ccc(O)c([N+](=O)[O-])c1,-9.6%,i
CCCCCCN1C[C@@H](O)[C@H](n2cc(C3CC3)nn2)C[C@@H]1c1ccc(C)cc1,-11.6%,i
O=C(NC1CCCCC1)C(c1ccc(Cl)cc1)N(C(=O)c1cnccn1)c1ccc2c(c1)OCO2 (centres undefined),-18.3%,-1.2%
Fc1ccc(-c2cn3cc(Cc4ccc(Cl)cc4)sc3n2)cc1,-1.3%,-7.1%
Cc1nc2ccccc2c2oc(C(=O)NCCN3CCN(C)CC3)cc12,5.0%,1.1%

Further entries:
molecule,VACV Venus inh,VACV mCherry inh
CC=C1C2C=C(C)CC1(N)c1ccc(=O)[nH]c1C2 (centres undefined),-8.9%,-17.9%
CCC(C)(C)N1CC(=O)N(Cc2ccccc2)C(c2ccc(OC)cc2)C1=O (centres undefined),-0.5%,nt
OC(c1ccc2c(c1)CN(Cc1cccc3nccnc13)CCO2)C1CCCCC1 (centres undefined),-14.6%,-14.8%
CC1=CP(=O)(Oc2ccc([N+](=O)[O-])cc2)CC1 (centres undefined),-11.8%,4.6%
CCN(CC(=O)NCc1ccc(Cl)cc1)C(=O)CCC(=O)c1ccc(C)cc1,-25.0%,-6.5%
CC1CCN(C(=O)c2ccc(CNc3c(N4CCCC4)c(=O)c3=O)cc2)CC1,-5.5%,8.1%
Cc1c(CC(=O)O)c(=O)oc2c(C)c3occ(-c4ccc(F)cc4)c3cc12,-4.9%,-14.6%
CC1=C(C(=O)Nc2ccc(C(=O)N3CCN(c4ccccc4F)CC3)cc2)SCCO1,6.4%[7.34 µM],-3.1%[7.34 µM]
Cc1noc(C(=O)Nc2cc(Cl)ccc2O)c1Cl,-6.7%,-14.7%
Cc1cc2[nH]c(=O)c(=O)[nH]c2cc1S(=O)(=O)N1CCN(c2cccc(C(F)(F)F)c2)CC1,3.9%,1.2%
Cc1ccsc1C(=O)C1CCCN(Cc2cn(C)nc2-c2ccccc2)C1 (centres undefined),-17.6%,-5.0%
CN(C(=O)COC(=O)c1ccc2ccccc2n1)C1CCCCC1,-11.0%,-13.5%
CCOc1ccc(C2C(=O)N(C3CCCCC3)CC(=O)N2C2CCCC2)cc1OC (centres undefined),-10.2%,-9.9%
OC(c1ccc(-c2ccccc2)cc1)c1ncc(-c2ccc(C(F)(F)F)cc2)[nH]1 (centres undefined),-18.4%,-0.3%
CCOCc1cc(CN2CCN(c3ccccc3OC)CC2)c(O)c2ncccc12,-28.0%,12.6µM*
